Bioassay records (PubChem)
rRNA inh HTS: inhibitors of bacterial rRNA selective over humanized ribosomes | E. coli WT GFP vs humanized-ribosome RFP mutants, fluorescence, 24 h; active compounds read low; DMSO median 0, no signal -100 | GFP signal change (wild-type ribosome), % (test concentration not listed) | actives 1.6% (n = 350,000) | AID 720706;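 active means significant combined selectivity score with lowered wild-type GFP, culture density cut under 30%, mutant RFP and density less affected; inactive means any of these conditions unmet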; further: one replicate is shown; some compounds called inactive have numbers as strong as hits
AF4-AF9 inh: blocks AF4 peptide binding to human AF9; inhibition, % at 10 µM; actives 0.47% (n = 350,000); P42568; AID 651704; AlphaScreen, biotin-AF4 peptide binding to FLAG-AF9;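 active means every replicate reaching a set inhibition limit, whatever the replicate mean, cut at about 25% in these data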;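 further: 0% = plate neutral control median and 100% = total signal loss; the record names both 10 and 1 µM as test concentration; the first replicate is given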
Target sequence (P42568 whole entry, looked up): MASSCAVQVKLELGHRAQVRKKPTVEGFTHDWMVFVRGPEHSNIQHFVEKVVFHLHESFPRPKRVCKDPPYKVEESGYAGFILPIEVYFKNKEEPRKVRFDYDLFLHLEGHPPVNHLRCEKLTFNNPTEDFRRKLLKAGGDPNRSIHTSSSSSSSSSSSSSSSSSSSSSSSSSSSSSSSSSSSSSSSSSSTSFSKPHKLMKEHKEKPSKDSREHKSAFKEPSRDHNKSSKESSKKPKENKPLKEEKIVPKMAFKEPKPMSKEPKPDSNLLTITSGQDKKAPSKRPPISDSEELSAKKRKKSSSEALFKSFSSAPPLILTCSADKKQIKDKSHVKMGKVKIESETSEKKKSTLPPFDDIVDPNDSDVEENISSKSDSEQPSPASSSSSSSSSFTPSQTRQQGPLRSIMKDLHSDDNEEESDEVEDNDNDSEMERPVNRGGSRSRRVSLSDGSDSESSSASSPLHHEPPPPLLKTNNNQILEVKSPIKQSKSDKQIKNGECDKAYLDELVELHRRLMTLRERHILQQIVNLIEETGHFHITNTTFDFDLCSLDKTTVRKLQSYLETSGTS
FGF22 binding: FGF22 (human) thermal shift binding; Q9HCT0; recombinant FGF22 thermal shift, SYPRO orange fluorescence; percent of sucrose octasulfate shift, DMSO zero; calls only at 9.99 µM; actives 1.5% (n = 340,000); AID 651658;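 active means melting point raised past a set limit in the mean and every replicate; three in four hits are not shown here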
Target sequence (Q9HCT0 whole entry, looked up): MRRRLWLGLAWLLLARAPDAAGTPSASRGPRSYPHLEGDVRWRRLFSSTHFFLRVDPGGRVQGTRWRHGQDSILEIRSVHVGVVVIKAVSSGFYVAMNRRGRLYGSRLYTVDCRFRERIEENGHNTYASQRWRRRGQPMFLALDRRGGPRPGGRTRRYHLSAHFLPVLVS
rRNA inh HTS OD600: further read-out of rRNA inh HTS, marked with its call; OD600 change, %; measured here: OD600 growth;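 optical density of the mix in the first replicate; 0 = DMSO median and -100 = no signal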
rRNA inh HTS RFP: recorded beside rRNA inh HTS, whose call it bears; RFP signal change, %; measured here: RFP humanized mutant strains;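 first replicate; 0 = DMSO median and -100 = no signal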
Numbers without * were called inactive; i = inactive; + = active, no number.

SMILES | rRNA inh HTS | rRNA inh HTS OD600 | rRNA inh HTS RFP | AF4-AF9 inh | FGF22 binding
Cc1ccc(S(=O)(=O)N2C[C@@H](O)COC[C@@H]3O[C@H](CC(=O)NCC4CCCCC4)CC[C@H]32)cc1 | 0 | 14 | -2.6 | 1.0 | i
Cc1noc(C)c1NC(=O)N[C@H]1CC[C@@H](CCNC(=O)C2CCCCC2)O[C@@H]1CO | 3 | 18 | -1.8 | -1.2 | i
CC(O)(c1cccnc1)c1nc(-c2ccc3ccccc3c2)cs1 (centres undefined) | -54 | -68 | -16 | -3.7 | i
CN1C(=O)c2cc(NC(=O)Cc3cccs3)ccc2OC[C@@H]2O[C@@H](CC(=O)N[C@@H]3CCN(Cc4ccccc4)C3)CC[C@H]21 | 2 | 13 | -2.4 | 1.0 | i
Cc1ccccc1C1=CC(=O)CC(C)(C)C1=O | 18 | 11 | 2.6 | -1.4 | i
CC(=O)N1[C@H](CN(C(=O)c2ccc(F)cc2)C(C)C)[C@H](c2ccccc2)[C@@H]1CO | 0 | 11 | 0.6 | -0.9 | i
COc1ccc(S(=O)(=O)N(C)C[C@@H]2Oc3ccc(NC(=O)Nc4ccccc4)cc3CC(=O)N([C@H](C)CO)C[C@@H]2C)cc1 | -1 | -3 | 3.9 | 1.5 | +
Cc1noc(C)c1NC(=O)N(C)C[C@H]1Oc2c(NS(=O)(=O)c3cccs3)cccc2C(=O)N([C@H](C)CO)C[C@H]1C | -1 | -6 | -0.5 | -4.1 | i
CCN(CC)CCOc1ccc(-c2c(C)c3c(ccc4ccccc43)oc2=O)cc1 | -1 | 13 | -1.7 | -3.5 | i
CS(=O)(=O)Nc1ccc2c(c1)[C@@H]1C[C@@H](CC(=O)NCc3ccccc3)O[C@@H](CO)[C@@H]1O2 | 1 | 2 | -0.1 | -1.4 | i
C[C@@H]1CN([C@@H](C)CO)C(=O)c2cc(NC(=O)C3CC3)ccc2O[C@H]1CN(C)S(=O)(=O)c1ccccc1 | -4 | 0 | -2.5 | -2.7 | i
C[C@H](CO)N1C[C@H](C)[C@H](CN(C)C(=O)C2CC2)Oc2ncc(C#Cc3ccccc3)cc2C1=O | -1 | 3 | -0.8 | -8.5 | i
COc1cccc(CN2CCC2(C)C(=O)Nc2cccc(Oc3ccccc3)c2)c1OC (centres undefined) | 0 | -35 | -2.4 | -3.5 | i
COCC(=O)N(C)C[C@@H]1Oc2cc(C#CC3CC3)ccc2S(=O)(=O)N([C@H](C)CO)C[C@@H]1C | -4 | 4 | -2.2 | -0.5 | i
C[C@@H]1CN([C@H](C)CO)C(=O)Cc2cc(NS(=O)(=O)c3cn(C)cn3)ccc2O[C@H]1CN(C)Cc1ccccc1 | 1 | 0 | -1.6 | -1.9 | i
CC=Cc1ccc2n(c1=O)C[C@@H]1[C@@H](CO)[C@H](C(=O)NCCc3ccccc3)N(C(=O)CC)[C@H]21 (mixture of isomers) | 3 | 1 | -0.4 | 0.1 | i
O=C(O)C[C@@H]1C[C@@H]2c3cc(NC(=O)Nc4ccc(F)cc4)ccc3O[C@@H]2[C@H](CO)O1 | 2 | 2 | -2.4 | -5.2 | i
CO[C@H]1CN(C)C(=O)c2ccc(NC(=O)C3CCCCC3)cc2OC[C@@H](C)NC[C@H]1C | 1 | -8 | 1.2 | -1.3 | i
O=C(C[C@@H]1C[C@H]2c3cc(NC(=O)Nc4ccccc4)ccc3O[C@H]2[C@H](CO)O1)NCc1cccc(F)c1 | -3 | 3 | 5.0 | 0.7 | i
COc1ccc(S(=O)(=O)Nc2ccc3c(c2)C(=O)N([C@@H](C)CO)C[C@@H](C)[C@H](CN(C)Cc2ccccc2)O3)cc1 | -1 | -3 | -1.3 | -0.1 | i
C[C@@H]1CN([C@H](C)CO)C(=O)c2cccc(NS(C)(=O)=O)c2O[C@@H]1CN(C)C(=O)Nc1cccc2ccccc12 | -1 | -5 | 0.1 | -3.2 | i
C[C@@H]1CCCCO[C@@H](CN(C)S(=O)(=O)c2ccccc2)[C@@H](C)CN([C@H](C)CO)C(=O)c2cc(NC(=O)Nc3cccc4ccccc34)ccc2O1 | 1 | 14 | -0.9 | -8.4 | i
C[C@H](O)C#Cc1ccc2c(c1)O[C@H](CN(C)C(=O)Cc1ccccn1)[C@@H](C)CN([C@H](C)CO)S2(=O)=O | 4 | 5 | -0.2 | -2.5 | +
O=C(CN1CCOCC1)NCC[C@H]1CC[C@@H](NC(=O)Nc2ccc(F)cc2)[C@@H](CO)O1 | 1 | 0 | -0.9 | 0.3 | i
O=C1c2ccccc2C(c2nnnn2Cc2ccccc2)N1Cc1ccc(F)cc1 (centres undefined) | -13 | -16 | -1.7 | -3.0 | i
CCC(=O)N1[C@H](C(=O)OC)[C@@H](CO)[C@@H]2Cn3c(ccc(/C=C/c4ccccc4)c3=O)[C@@H]21 | -3 | 2 | -3.8 | -4.0 | i
CCCNC(=O)C[C@@H]1CC[C@H]2[C@@H](COC[C@H](O)CN2C(=O)Nc2ccccc2OC)O1 | 5 | 21 | -1.7 | -1.1 | i
CO[C@H]1CN(C)C(=O)c2cc(NS(C)(=O)=O)ccc2OC[C@H](C)N(CC2CCCCC2)C[C@H]1C | 0 | -4 | -1.2 | -0.9 | i
CN(C)c1ccc2c(c1)[C@@H]1C[C@@H](CC(=O)NC3CCCC3)O[C@H](CO)[C@@H]1O2 | 4 | 7 | 10 | 1.9 | i
O=C(NCC[C@H]1CC[C@H](NS(=O)(=O)c2cccc(F)c2)[C@H](CO)O1)C1CCOCC1 | 0 | 0 | -1.6 | -1.5 | i
CC1(C(=O)NCc2ccccc2)CN(S(C)(=O)=O)CC(=O)N1Cc1ccco1 (centres undefined) | 13 | 21 | -1.3 | -2.4 | i
CCOC(=O)c1cc(-c2sc(NC(=O)c3ccccc3)nc2C)n(-c2ccc(Br)cc2)n1 | 2 | 10 | 3.1 | 2.9 | i
CC(C)(C)[S@@](=O)N1Cc2cc(C(=O)NCCc3ccncc3)nc(-c3cccc(-c4ccncc4)c3)c2[C@H]1CCO | 14 | 8 | -4.8 | -2.4 | i
C[C@H](CO)N1C[C@H](C)[C@@H](CN(C)C(=O)C2CCCCC2)OCCCC[C@H](C)Oc2ccc(NC(=O)c3ccccc3)cc2C1=O | -5 | -6 | 1.1 | -1.6 | i
Cc1noc(C)c1NC(=O)N(C)C[C@@H]1Oc2cc(C#CCN(C)C)ccc2S(=O)(=O)N([C@@H](C)CO)C[C@@H]1C | 5 | 9 | -1.8 | 16 | i
CNC[C@H]1Oc2c(NC(=O)c3cc(C)nn3C)cccc2C(=O)N([C@@H](C)CO)C[C@@H]1C | 1 | 7 | -3.3 | -4.0 | i

As a short view, some entries already given:
SMILES | rRNA inh HTS | rRNA inh HTS OD600 | rRNA inh HTS RFP | AF4-AF9 inh | FGF22 binding
CCC(=O)N1[C@H](C(=O)OC)[C@@H](CO)[C@@H]2Cn3c(ccc(/C=C/c4ccccc4)c3=O)[C@@H]21 | -3 | 2 | -3.8 | -4.0 | i
CCCNC(=O)C[C@@H]1CC[C@H]2[C@@H](COC[C@H](O)CN2C(=O)Nc2ccccc2OC)O1 | 5 | 21 | -1.7 | -1.1 | i
CO[C@H]1CN(C)C(=O)c2cc(NS(C)(=O)=O)ccc2OC[C@H](C)N(CC2CCCCC2)C[C@H]1C | 0 | -4 | -1.2 | -0.9 | i
CN(C)c1ccc2c(c1)[C@@H]1C[C@@H](CC(=O)NC3CCCC3)O[C@H](CO)[C@@H]1O2 | 4 | 7 | 10 | 1.9 | i
O=C(NCC[C@H]1CC[C@H](NS(=O)(=O)c2cccc(F)c2)[C@H](CO)O1)C1CCOCC1 | 0 | 0 | -1.6 | -1.5 | i
CC1(C(=O)NCc2ccccc2)CN(S(C)(=O)=O)CC(=O)N1Cc1ccco1 (centres undefined) | 13 | 21 | -1.3 | -2.4 | i
CCOC(=O)c1cc(-c2sc(NC(=O)c3ccccc3)nc2C)n(-c2ccc(Br)cc2)n1 | 2 | 10 | 3.1 | 2.9 | i
CC(C)(C)[S@@](=O)N1Cc2cc(C(=O)NCCc3ccncc3)nc(-c3cccc(-c4ccncc4)c3)c2[C@H]1CCO | 14 | 8 | -4.8 | -2.4 | i
C[C@H](CO)N1C[C@H](C)[C@@H](CN(C)C(=O)C2CCCCC2)OCCCC[C@H](C)Oc2ccc(NC(=O)c3ccccc3)cc2C1=O | -5 | -6 | 1.1 | -1.6 | i
Cc1noc(C)c1NC(=O)N(C)C[C@@H]1Oc2cc(C#CCN(C)C)ccc2S(=O)(=O)N([C@@H](C)CO)C[C@@H]1C | 5 | 9 | -1.8 | 16 | i

(listing goes on)
SMILES | rRNA inh HTS | rRNA inh HTS OD600 | rRNA inh HTS RFP | AF4-AF9 inh | FGF22 binding
C[C@H](CO)N1C[C@H](C)[C@@H](CN(C)S(=O)(=O)c2ccccc2)Oc2cc(-c3cccc(F)c3)ccc2S1(=O)=O | -1 | -1 | 2.9 | 1.4 | i
C[C@H](CO)N1C[C@H](C)[C@H](CN(C)S(C)(=O)=O)Oc2cc(C3=CCCCC3)ccc2S1(=O)=O | -1 | -10 | -0.8 | 0.3 | i
N#C[C@@H]1[C@@H](c2ccc(-c3ccncc3)cc2)[C@@H](CO)N1C(=O)C1CCC1 | 1 | 3 | -1.1 | -1.9 | i
CC1=CC(=O)Nc2ccccc2S1 | 3 | 4 | 14 | 3.9 | i
N#Cc1cccnc1N1CCN(C(C(=O)NC2CCCC2)c2ccco2)CC1 (centres undefined) | 6 | 3 | 2.4 | 0.4 | i
C[C@H](CO)N1C[C@H](C)[C@H](CN(C)C(=O)NC2CCCCC2)Oc2ccc(NS(=O)(=O)c3ccc(F)cc3)cc2C1=O | 1 | 6 | 3.0 | -2.3 | i
COc1ccc(OC)c(S(=O)(=O)NC(=O)C2(C)CCN2C(=O)Cc2ccc(Cl)cc2Cl)c1 (centres undefined) | -1 | -4 | -6.7 | -2.9 | i
C[C@H](CO)N1C[C@H](C)[C@H](CN(C)CC2CCCCC2)Oc2ccc(NS(=O)(=O)c3ccccc3)cc2C1=O | 2 | 0 | 1.6 | -3.9 | i
C[C@H](CO)N1C[C@H](C)[C@H](CN(C)C(=O)c2ccc(F)cc2)Oc2ncc(C#CC3CC3)cc2C1=O | 3 | 7 | 0.0 | -3.1 | i
COc1ccc(CNC(=O)[C@H](Cc2ccccc2)NC(=O)CC[C@H]2O[C@@H](n3ccc(=O)[nH]c3=O)[C@H](O)[C@@H]2O)cc1 | 14 | 12 | 4.1 | -0.3 | i
CCCNC(=O)C1(C)CCN(C(=O)Cc2ccc(OC)c(OC)c2)C1 (centres undefined) | 4 | 3 | -1.5 | -0.9 | i
COc1ccccc1C#Cc1ccc2c(c1)[C@H]1[C@H](CCN1C(=O)CN1CCOCC1)[C@@H](CO)N2 | -4 | -1 | 0.9 | 15 | i
CC1(C(=O)NS(C)(=O)=O)CCN1C(=O)Cc1ccc(-c2ccccc2)cc1 (centres undefined) | 14 | 13 | -0.7 | -0.6 | i
Cc1ccc(-c2cnc3c(c2)C(=O)N([C@@H](C)CO)C[C@H](C)[C@@H](CN(C)C(=O)c2ccncc2)O3)cc1 | -3 | 11 | 0.4 | -6.6 | i
O=C(Nc1cccc(S(=O)(=O)N2CCCC2)c1)[C@@H]1O[C@H](CO)[C@H](O)[C@H](O)[C@H]1O | 9 | 13 | -1.4 | -5.0 | i
CCC(=O)Nc1ccc2c(c1)OC[C@@H](C)N(Cc1ccccn1)C[C@@H](C)[C@H](OC)CN(C)C2=O | 1 | 0 | -0.3 | -0.7 | i
CC1(C(=O)Nc2ccc3[nH]ncc3c2)CCN1C(=O)Cc1ccc(-c2ccccc2)cc1 (centres undefined) | -16 | -29 | -1.2 | -3.0 | i
CN(C)C(=O)C[C@H]1C=C[C@@H](NS(=O)(=O)c2ccccc2)[C@H](CO)O1 | 3 | 4 | 0.8 | 0.0 | i
C[C@H](CO)N1C[C@H](C)[C@@H](CN(C)S(=O)(=O)c2ccccc2)OCc2ccccc2-c2c(n(C)c3ccccc23)C1=O | 0 | -9 | -1.6 | 2.0 | i
CC(C)C#Cc1ccc2c(c1)O[C@H](CN(C)S(C)(=O)=O)[C@@H](C)CN([C@@H](C)CO)S2(=O)=O | -7 | -12 | -0.4 | 2.3 | i
O=C(C[C@@H]1CC[C@H]2[C@@H](COC[C@H](O)CN2Cc2cccc(F)c2)O1)NCc1cccc(F)c1 | -4 | 2 | -3.4 | -5.4 | i
C[C@@H]1CN([C@H](C)CO)C(=O)c2cc(NC(=O)Nc3ccc(C(F)(F)F)cc3)ccc2O[C@@H]1CN(C)Cc1ccccc1 | -33 | -48 | 17 | 0.3 | i
CNC[C@@H]1Oc2ccc(NC(=O)Nc3c(C)noc3C)cc2C(=O)N([C@H](C)CO)C[C@@H]1C | 9 | 10 | -0.3 | -4.8 | i
CC(=O)O[C@@H]1C=C[C@@H](C#Cc2ccc(C(C)(C)C)cc2)O[C@@H]1COC(=O)NCc1ccccc1 | 16 | 14 | 9.4 | 1.8 | i
CNC[C@H]1Oc2c(NS(=O)(=O)c3cn(C)cn3)cccc2C(=O)N([C@@H](C)CO)C[C@H]1C | -1 | -11 | -2.3 | -3.6 | i

Some of the compounds tested; count on the stated rates, not on these rows.
